Sfp PPTase inh = blocks B. subtilis Sfp PPTase activity. Biochemical Sfp PPTase activity, qHTS. 3.5% of 310,000 active. AID 1490. Q9F4F7. Potency, µM, for inactives: max response, negative = inhibition, most hits filed as inhibitors; active = well fitted inhibition curve with a large enough effect; inconclusive = small, poorly fitted or top-dose-only effect, or another doubt; inactive = no such curve, though single readings can be large or run the other way;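 note: the enzyme is Sfp with the accession as filed and its product quenches rhodamine fluorescence; potency is the fitted concentration of half-maximal effect; 0% = enzyme reaction without inhibitor and -100% = no enzyme wells; top concentration of the series not given in the record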
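Sfp 15 nM + cpd, 15 min RT; start w/ rhodamine-CoA 5 uM, BHQ-2-YbbR 12.5 uM (final); 50 mM Hepes pH 7.6, 10 mM MgCl2, 0.01% NP-40, 0.01% BSA; read 525/598 nm at 0 and 30 min.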
ClpP mod = qHTS Assay for Activators of ClpP; purified B. subtilis ClpP, FRET peptide cleavage, 20 min; AID 651965, 2013; 1.9% of 340,000 active; Potency, µM (titrated, usually from 57.5 µM), for inactives: top-dose activity change, negative = active; active = well fitted falling curve with a large enough effect; inconclusive = small, poorly fitted or top-dose-only effect; inactive = no such curve, though single readings can be large or run the other way; note: potency is the fitted concentration of half-maximal effect; the source files actives as falling curves though it sought activators and does not explain the sign; nearly all actives have a fitted effect of over 65% in size; many hits overshoot -100%
Target sequence (P80244 whole entry, looked up): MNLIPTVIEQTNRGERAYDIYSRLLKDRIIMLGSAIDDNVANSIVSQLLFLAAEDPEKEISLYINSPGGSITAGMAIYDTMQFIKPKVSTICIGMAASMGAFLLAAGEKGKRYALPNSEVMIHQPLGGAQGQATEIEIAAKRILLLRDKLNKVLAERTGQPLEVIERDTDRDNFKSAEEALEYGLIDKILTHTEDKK
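ClpP 10 microg/mL final, pH 8 Tris/KCl buffer with BSA, glycerol, Tween-20; compound pinned in; FRET-FV substrate; RT 20 min; Ex320/Em430; ΔFRET vs ADEP 5.8 microM, DMSO, no enzyme.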
Menin-MLL FL inh = displaces fluorescein MLL peptide from human menin. FP activity change, % at 61.4 µM. Fluorescence polarization, fluorescein-MLL peptide displacement from menin. 290,000 tested, under 10 active; inconclusive = falling polarisation curve, or a change in total fluorescence; inactive = total fluorescence flat and polarisation flat or rising; no compound was filed as active; the % refers to the polarisation; negative = inhibition;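 note: % of control where 0% means no effect; inhibitors lower the polarisation; unlabelled MLL peptide was the positive control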
gsp antagonist = antagonizes gsp, the McCune-Albright syndrome mutation | gsp-mutant cells, cAMP HTRF, 30 min; control for the full effect not named in the record | Potency, µM (titrated, usually from 76.9 µM), inactives show at the highest dose activity change, negative = inhibition, usual class: inhibitors | 0.4% of 340,000 active | AID 624288; active = falling curve of any shape with a large fitted effect; inconclusive = falling curve, mostly with a smaller effect; inactive = flat or rising curve; cell line not stated here;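 note: intracellular cAMP measured with PDE inhibitor Ro 20-1724 present during compound exposure; potency is the fitted concentration of half-maximal effect; % is set by controls: 0 for no effect and ±100 for the full control effect; nearly all actives have a fitted effect of over 65% in size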
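Cells, 2000/well, grown 16–24 h in DMEM 10% FBS with 0.5 mg/ml G418, then compounds plus […] (300 uM addition stock), 30 min at 37C. cAMP read by HTRF (cAMP-d2 and anti-cAMP antibody-K in lysis buffer) after 30 min RT.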
gsp agonist = activates gsp, the McCune-Albright syndrome mutation. gsp mutant cells, cAMP HTRF, 30 min; control for the full effect not named in the record. AID 624287. 0.13% of 340,000 active. Potency, µM (titrated, usually from 76.9 µM), inactives show at the top dose activation (cAMP increase), usual class: activators; active = well fitted activation curve with a large enough effect; inconclusive = small, poorly fitted or top-dose-only effect, or another doubt; inactive = no such curve, though single readings can be large or run the other way; cell line not stated here;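 note: phosphodiesterase inhibitor Ro 20-1724 added with compounds to block cAMP breakdown; potency is the fitted concentration of half-maximal effect; nearly all actives have a fitted effect of over 60% in size; about a fifth of the inactives were tested at one dose only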
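Cells stably selected in G418 were plated at 2000/well, grown 16-24 hr, then given compounds in DMSO with the PDE inhibitor […] (300 uM solution added) for 30 min at 37C; cAMP was read by HTRF.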
TRPV1 PAM = potentiators of human vanilloid receptor 1 (TRPV1) | Q8NER1 | TRPV1-expressing cells, Fluo-8 calcium influx, capsaicin EC20 potentiation; host cell line not named in the record; control for the full effect not named in the record | potentiation, % at 8.33 µM | 0.02% of 320,000 active; active means potentiation above 80%; inconclusive means 30% to 80%; inactive means below 30%; note: 0% is about no effect
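TRPV1-expressing cells were cultured overnight at 35.5C and loaded with Fluo-8 calcium dye for 40 to 90 min at room temperature. After a 10 s baseline, compound was added and calcium influx was read kinetically for 3 min (ex 480/em 520 nm).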
TRPML1 blocker = human mucolipin-1 channel inhibition. Q9GZU1. TRPML1-inducible cells, Ca2+ dye fluorescence, FDSS; active compounds read low; inhibition of EC80 agonist-evoked calcium signal. activity change, negative = inhibition, % (test concentration not listed). 0.02% of 390,000 active. AID 624415; in the data active means activity change below about -50%; inconclusive means about -30% to -50%; inactive means above about -30%;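 note: stimulus is agonist 54-4 at its EC80 concentration; % is set by controls: 0 for no effect and ±100 for the full control effect; compound concentration not given in the record; the text of the record puts the active cut at -80%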
Target sequence (Q9GZU1 whole entry, looked up): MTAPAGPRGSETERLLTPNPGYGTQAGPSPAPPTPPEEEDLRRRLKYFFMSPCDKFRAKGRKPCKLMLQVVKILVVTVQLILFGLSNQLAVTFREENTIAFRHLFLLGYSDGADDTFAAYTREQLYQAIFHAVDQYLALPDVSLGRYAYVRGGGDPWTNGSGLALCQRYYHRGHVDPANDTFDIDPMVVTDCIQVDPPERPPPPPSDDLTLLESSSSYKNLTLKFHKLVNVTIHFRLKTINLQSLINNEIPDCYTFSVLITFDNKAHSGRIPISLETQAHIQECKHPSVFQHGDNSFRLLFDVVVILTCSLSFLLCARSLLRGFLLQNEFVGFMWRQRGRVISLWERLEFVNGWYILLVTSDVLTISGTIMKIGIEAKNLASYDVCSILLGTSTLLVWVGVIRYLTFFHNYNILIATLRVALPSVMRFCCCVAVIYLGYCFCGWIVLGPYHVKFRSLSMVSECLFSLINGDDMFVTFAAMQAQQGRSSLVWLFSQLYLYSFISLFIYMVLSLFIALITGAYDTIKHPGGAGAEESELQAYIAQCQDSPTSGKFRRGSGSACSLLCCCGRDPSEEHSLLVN
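TRPML1-DL cells, Tet-induced overnight (~16 h, 37 °C) at 1,500 cells/well, were loaded with Ca8 no-wash dye plus quencher for 45-90 min at room temperature. Compounds were pinned during FDSS kinetic reading; agonist 54-4 at EC80 (4 uM final) then added.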
* = called active by the depositor; ? = inconclusive; / = not tested or not shown; & = joins results of further samples; [ ] = remark or other dose. Compounds were not picked by outcome, and some 4.9% of all compounds hit somewhere here.

Every second line gives: Sfp PPTase inh	ClpP mod	Menin-MLL FL inh	gsp antagonist	gsp agonist	TRPV1 PAM	TRPML1 blocker
O=C(OCCN1C(=O)c2ccccc2C1=O)C1CC(O)CN1S(=O)(=O)c1ccc(Cl)cc1 (configuration not stated)
 : /	0.5%	/	?	-20%	-3	1
C[C@H]1CN([C@@H](C)CO)C(=O)c2cccc(NC(=O)Nc3ccc(C(F)(F)F)cc3)c2O[C@@H]1CN(C)Cc1ccc(Cl)c(Cl)c1
 : /	-8.9%	/	-24%	/	/	-2
COc1ccccc1Nc1nc(N)nc(CSC(=S)N2CCOCC2)n1
 : 10%	0.0%	0.5	-3%	8%[15.4 µM]	0	-9
COc1cc(CO)ccc1Oc1nc2ccccc2n2cnnc12
 : -18%	-2.0%	3.5	-2%	-2%	16	17
NS(=O)(=O)c1ccc(CCNS(=O)(=O)c2ccc(Cl)nc2)cc1
 : -4%	-0.6%	4.4	7%	0%	2	11
CCOC(=O)Nc1ccc2c(c1)ncn2C1CCCCC1
 : 22%	0.3%	7.4	-5%	-47%[inhibitor]	-1	-4
CN1CCN(c2nc(-c3ccccc3)cc(C(F)(F)F)n2)CC1
 : 6%	-5.5%	2.7	4%	10%	-6	-3
CCOc1ccc(-c2nnc(NC(=O)C3CCCC3)o2)cc1
 : 28%	/	2.2	7%	-14%[15.4 µM]	?	5
COC(=O)c1cccc(NC(=O)CN2CCOCC2)c1
 : 4%	0.5%	-0.4	0%	-31%[inhibitor]	-21	-7
CN(C)C=Nc1ccc([N+](=O)[O-])c2ccccc12
 : /	-0.6%	/	/	12%	/	0
Cc1ccc(S(=O)(=O)NCc2nnc(SCC(=O)Nc3cccc(C)c3C)n2C)cc1
 : 24%	-0.2%	1.0	-1%	-1%	-2	3
Cc1ccc(NC(=O)C2CCCN(S(=O)(=O)c3c(C)noc3/C=C/N(C)C)C2)cc1F (configuration not stated)
 : 12%	-1.8%	9.8	-6%	-16%	0	-7
CN(Cc1ccccc1)S(=O)(=O)CCNC(=O)c1ccc2c(c1)OCO2
 : /	-3.0%	/	-7%	-7%	-4	6
Cn1c(/C(C#N)=C(\O)c2ccc(Br)s2)nc2ccccc21
 : 8%	-0.7%	3.4	?	?	-1	-10
O=C(/C=C/c1ccc(O)c(O)c1)c1ccc(S(=O)(=O)N2CCCCCC2)cc1
 : -13%	1.7%	8.6	16%	-2%	-20	-13

(listing goes on)
Every second line gives: Sfp PPTase inh	ClpP mod	Menin-MLL FL inh	gsp antagonist	gsp agonist	TRPV1 PAM	TRPML1 blocker
Cc1ccc(S(=O)(=O)N(CC(=O)NCc2ccccc2Cl)C(=O)N2CCN(C)CC2)cc1
 : /	1.6%	/	2%	0%	-1	-12
COc1ccccc1C1CC(c2ccc(C)cc2)Nc2ncnn21 (configuration not stated)
 : 19%	-0.5%	-0.9	-3%	-53%[inhibitor]	-8	17
COC(=O)/C(C#N)=C1/C=Cc2ccccc2N1
 : -7%	/	5.6	5%	-59%[inhibitor]	1	-2
O=C(NNc1c(Cl)cccc1Cl)c1sccc1Cl
 : -5%	0.0%	1.5	-11%	-12%[15.4 µM]	-2	-5
Cc1ccc(-c2nn[nH]n2)cc1Cl
 : 25%	0.8%	-3.3	0%	-1%[15.4 µM]	8	1
O=C(NC(=O)c1ccc(Cl)c(Cl)c1)OC1CCS(=O)(=O)C1 (configuration not stated)
 : -2%	-0.7%	1.5	6%	-3%	10	38
CCCc1nc(SCC(=O)N2CCOCC2)c2c(C)c(C)sc2n1
 : 2%	/	?	-13%	23%	-20	-12
COCCSc1nnc(NC(=O)C2CC(=O)N(c3ccc(OC)cc3)C2)s1 (configuration not stated)
 : 29%	/	-2.2	-3%	-17%[15.4 µM]	-1	23
CC1CCc2c(sc3ncnc(NS(=O)(=O)c4cccs4)c23)C1 (configuration not stated)
 : 24%	/	-0.7	-21%	-5%[15.4 µM]	8	23
Cc1cc(/C=C(\C#N)C(=O)Nc2ccccc2F)c(C)[nH]1
 : -14%	-8.9%	5.1	-13%	5%[15.4 µM]	-3	9
CCOCCc1nn2c(=O)cc(CSCC(=O)Nc3cc(C)cc(C)c3)nc2s1
 : -3%	-2.1%	0.0	5%	28%	7	22
COc1ccc(CN2C(=O)CCC(C(=O)O)C2c2ccccc2)cc1 (configuration not stated)
 : 11%	/	2.5	7%	?	-1	7
Cc1nc(Cl)sc1C(=O)Nc1ccccc1
 : -11%	0.1%	-25	2%	12%[15.4 µM]	-24	-9
Cc1nc2ccc([N+](=O)[O-])cc2[nH]1
 : 7%	/	1.8	12%	-15%	3	22
O=C(Cn1c(C(=O)N2CCN(C3CCCCC3)CC2)cc2sccc21)c1ccccc1
 : 12%	0.2%	1.6	-4%	22%	19	13

(listing goes on)
Every second line gives: Sfp PPTase inh	ClpP mod	Menin-MLL FL inh	gsp antagonist	gsp agonist	TRPV1 PAM	TRPML1 blocker
COc1cccc(Cn2c(NCc3cccnc3)nc3c2c(=O)n(C)c(=O)n3C)c1
 : -2%	-14%	5.1	2%	3%	-9	6
Nn1c(SCC(=O)NC2CCS(=O)(=O)C2)nnc1-c1ccco1 (configuration not stated)
 : /	/	/	20%	-8%	/	10
CC(C)Oc1ccccc1C1Nc2ccccc2C(=O)N1c1ccc2c(c1)OCCO2 (configuration not stated)
 : -5%	?	3.4	-3%	-4%	-11	-9
COc1ccc(C(=O)c2ccccc2)c(OCC(=O)NC2CC2)c1
 : 4%	0.4%	-2.8	1%	-3%	-17	20
COc1ccc(C2C(=O)N(CCc3ccccc3)CC(=O)N2C2CCCC2)cc1 (configuration not stated)
 : 15%	-2.2%	-3.7	-5%	8%	-20	7
CCCC(C(=O)NCC1CCCO1)N(Cc1ccco1)C(=O)CNS(=O)(=O)c1ccc(F)cc1 (configuration not stated)
 : 11%	1.1%	5.9	2%	-24%	5	8
O=C(NCc1ccccc1Cl)NC(=O)c1csc([N+](=O)[O-])c1
 : -2%	-1.1%	1.4	-3%	-1%[15.4 µM]	7	-4
CCn1nc(C)c([N+](=O)[O-])c1C(=O)NNC(=O)c1ccccc1Cl
 : 4%	/	0.9	6%	?	7	-1
CCN(c1ccc(OC)cc1)S(=O)(=O)c1nnc(NC(=O)COc2ccccc2)s1
 : 13%	3.0%	/	5%	1%	15	13
COc1ccc(CCNC(=O)c2cnc3ccccc3n2)cc1
 : 5%	/	1.9	-9%	4%[15.4 µM]	-13	-8
O=C(Cn1ncc2c([nH]c3ccccc32)c1=O)N1CCN(c2ccc(F)cc2)CC1
 : 13%	-4.3%	-5.1	20%	-46%[inhibitor]	14	-5
COc1ccc(/C=C/C(=O)O)cc1S(=O)(=O)N1CCC(Cc2ccccc2)CC1
 : -8%	-0.5%	-1.4	-9%	27%	-4	/
Nn1c(SCC(=O)NC2CCS(=O)(=O)C2)nc2scc(-c3ccccc3)c2c1=O (configuration not stated)
 : /	-5.1%	/	2%	-5%	-15	-9
O=C(Nc1ccon1)c1cnc2sccn2c1=O
 : 5%	20µM*	2.2	19%	-2%	-3	-16
COc1ccc(C(=O)NC(=S)NCc2ccco2)cc1
 : ?	-1.5%	4.5	4%	-2%[15.4 µM]	-13	9

(cont.)
Every second line gives: Sfp PPTase inh	ClpP mod	Menin-MLL FL inh	gsp antagonist	gsp agonist	TRPV1 PAM	TRPML1 blocker
Cc1cc(OCC(=O)Nc2sc3c(c2C#N)CC(C)(C)NC3(C)C)c(C(C)C)cc1Cl
 : 16%	0.1%	/	5%	-10%	8	-29
COc1cccc(NC(=O)CN(c2cccc(OC)c2)S(C)(=O)=O)c1
 : 12%	/	-3.3	5%	-5%[15.4 µM]	-6	-8
C=CCn1c(SCC(=O)NC2CCS(=O)(=O)C2)nnc1-c1ccncc1 (configuration not stated)
 : -5%	0.3%	-4.0	16%	-4%[15.4 µM]	7	-2
COc1ccc(/C=N\NC(=O)CCN2CCN(c3ccccc3)CC2)cc1OC
 : 5%	-2.3%	-1.2	17%	5%	6	14
O=C(CC(NCCc1ccccc1)C(=O)O)Nc1ccc(O)cc1 (configuration not stated)
 : -24%	/	0.2	/	/	-10	/
CCCN(C(=O)c1cc(S(=O)(=O)N(C)c2ccccc2OC)ccc1C)C1CCS(=O)(=O)C1 (configuration not stated)
 : /	-2.1%	/	-12%	-61%[inhibitor]	/	41
Cc1noc(C)c1S(=O)(=O)N1CCC(Cc2ccccc2)CC1
 : -7%	0.8%	1.0	-32%	-50%[inhibitor]	3	3
COc1ccc2c(C)c(C(=O)NCC(C)O)oc2c1OC (configuration not stated)
 : 15%	18%	-0.2	0%	3%	-3	15
O=C(OCCN1CCN(c2ncc(C(F)(F)F)cc2Cl)CC1)c1ccc(F)cc1
 : 3%	1.9%	-2.0	1%	0%	/	10
Fc1ccccc1C1c2[nH]c3ccccc3c2CCN1Cc1ccoc1 (configuration not stated)
 : 21%	/	-2.1	-4%	19%[15.4 µM]	-1	1
O=S(=O)(Nc1ccccc1)c1ccc(NS(=O)(=O)c2cccs2)cc1
 : 17%	/	-0.3	2%	20%	5	1
CCOC(=O)c1c(CN2CCOCC2)n(C)c2cc(Br)c(O)c(CN(C)C)c12
 : -4%&-10%	3.2%&4.2%	1.1&1.4	-15%&-7%	-1%&1%	-5&-11	31&7
O=C1C2Sc3[nH]c(=O)sc3C(c3cc([N+](=O)[O-])ccc3O)C2C(=O)N1c1ccccc1 (configuration not stated)
 : -4%	/	4.4	3%	7%[15.4 µM]	27	-6
CCCCOc1ccc(C(=O)NCC(=O)OC2CCOC2=O)cc1 (configuration not stated)
 : 25%	0.4%	4.2	-17%	-17%	0	25

Source: PubChem BioAssay (National Center for Advancing Translational Sciences (NCATS))
